# Bioassay records deposited in PubChem BioAssay by National Center for Advancing Translational Sciences (NCATS).
# Vaccinia Venus: qHTS for Stage-Specific Inhibitors of Vaccinia Orthopoxvirus: Venus Reporter Primary qHTS; Vaccinia virus Venus reporter expression, fluorescence; Potency, µM (top dose mostly 36.5 µM), for inactives: at the highest dose activity change, negative = inhibition, hits mostly inhibitors; 330,000 compounds, 0.46% hits; AID 720580, 2013; active means well fitted inhibition curve with a large enough effect; inconclusive means small, poorly fitted or top-dose-only effect; inactive means no such curve, though single readings can be large or run the other way; tested in A549 cells; note: nearly all actives have a fitted effect of over 30% in size; inactives centre near -10
# VACV mCherry inh: qHTS for Stage-Specific Inhibitors of Vaccinia Orthopoxvirus: mCherry Reporter Primary qHTS; Vaccinia virus mCherry reporter infection, fluorescence; about a quarter of the inactives have no number; Potency, µM (doses to about 36.5 µM), inactives show at the highest dose activity change, negative = inhibition, most hits filed as inhibitors; 310,000 compounds, 0.63% hits; active = well fitted inhibition curve with a large enough effect; inconclusive = small, poorly fitted or top-dose-only effect; inactive = no such curve, though single readings can be large or run the other way; tested in A549 cells; note: nearly all actives have a fitted effect of over 35% in size; inactives centre near -10
# * hit, by the source's call; i = inactive; u = inconclusive; x = not tested or not shown; & = joins results of further samples; [ ] = another dose, or the depositor's remark. % is set by controls: 0 for no effect and ±100 for the full control effect; potency is the fitted concentration of half-maximal effect. This is a random part of the collection; about 0.88% have a hit in one of these screens.
SMILES,Vaccinia Venus,VACV mCherry inh
Cc1nnc(SCC(=O)N(C)C2CCCCC2)n1C,-11%,-9%
Cc1ccccc1OCCn1cc(C(=S)N2CCCC2)c2ccccc21,u,u
CCOc1ccc(CN(C)CC(=O)c2c(N)n(Cc3ccccc3)c(=O)n(CC)c2=O)cc1OC,-10%,x
COc1ccc(Cl)cc1NC(=O)CN(C)C(=O)c1ccc2c(c1)OCCO2,-8%,-8%
N#Cc1ccc(C(=O)N2CCCCC2c2cc(C(=O)Nc3ccccc3Cl)no2)cc1 (configuration not stated),6%,-1%
Cc1ccccc1NC(=O)CN1C(=O)NC(C)(CCc2ccccc2)C1=O (configuration not stated),-1%,-19%
CCOC(=O)c1c(NC(=O)CN2CCCc3ccccc32)sc(C)c1C,0%,6%
CCOC(=O)C1(C)CCCN(C(=O)c2ccc3c(c2)CCO3)C1 (configuration not stated),4%,39%[activator]
CCc1nnc(SCC(=O)Nc2nnc(C)s2)n1CC1CCCO1 (configuration not stated),-14%,-8%
CCOc1ccccc1NC(=O)C1=C(C)Nc2ncnn2C1c1ccco1 (configuration not stated),-5%,-8%
COc1ccc(C(=O)c2[nH]c(N)c(C(=O)NCCc3c[nH]c4ccccc34)c2-c2ccc(C(F)(F)F)cc2)cc1,-13%,-24%
COCCN1C(=O)/C(=C/c2ccc(N3CCCC3)cc2)SC1=S,63%[activator],i
COc1ccc(/C=N/NC2=NCCCCC2)cc1,-3%,-15%
COc1ccc(OC)c(C2=NS(=O)(=O)N(C)C(C(=O)NCc3ccco3)=C2)c1,-6%[7.34 µM],-16%[7.34 µM]
COCCn1c(=S)[nH]c2ccccc21,-5%,-7%
CCCCOc1ccc(CNC(=O)C2COc3ccc(OC)cc3C2)cc1 (configuration not stated),0%,-5%
COCCNC(=O)Cn1cc(C(=O)c2ccccc2F)c2ccccc21,-20%,i
Cc1nc2cc(C(=O)NC3CCCCCC3)ccc2n1-c1ccc(Br)cc1,-23%,u
CCCCN(C=O)c1c(CC)nc2c(OCCOc3ccccc3)cccn12,-11%,-9%
O=C(Nc1ccc(N2CCN(C(=O)c3ccccc3)CC2)cc1)c1ccc(Br)o1,-29%,x
COc1ccc(/C=C2/C(=O)NC(=S)N(C3CC3)C2=O)cc1CN1C(=O)c2ccccc2C1=O,-7%,-8%
Cc1nn(C(C)C(=O)NCCc2ccccc2)c(=O)c2c1sc1ccccc12 (configuration not stated),-9%,-1%
NC(=O)C1(N2CCCCC2)CCN(C(=O)c2ccccc2)CC1,-7%,i
COC(=O)c1cc(Cl)cc2c(CCO)c[nH]c12,-2%,i
Cc1cc(C)cc(-n2ccn(CC(=O)Nc3ccccc3C(F)(F)F)c(=O)c2=O)c1,-2%,1%
# More records follow:
SMILES,Vaccinia Venus,VACV mCherry inh
CCOC(=O)c1csc(CCNC(=O)c2ccccc2)n1,7%,-8%
COc1ccc(C(=O)NCc2ccc3c(c2)CCN3C(=O)c2ccc(C)cc2)cc1,-19%,-1%
Cc1ccc(C2(C)NC(=O)N(CC(=O)N3CCN(S(=O)(=O)c4ccc(Cl)s4)CC3)C2=O)cc1 (configuration not stated),u,-16%
COc1ccc(-n2ncc3c(=O)n(CC(=O)Nc4ccc5c(c4)OCCO5)cnc32)cc1,-8%,-14%
CCCNS(=O)(=O)c1ccc(C(=O)NCC2CCCO2)cc1 (configuration not stated),-2%,-15%
Cn1cc(CN2CCOc3ccc(C(O)C4CCCCC4)cc3C2)cn1 (configuration not stated),-10%,-6%
CCOc1ccc(CCNC(=O)c2cc3cccc4c3n2CCS4)cc1,-3%,-5%
COc1ccc([C@H]2CC(=O)C[C@@H](CCn3cc(-c4ccncc4)nn3)O2)cc1,1%,2%
COc1cccc(C2NC(=O)NC(C)=C2C(=O)Nc2ccc(C)cc2)c1OC (configuration not stated),-7%,-5%
CCOC(=O)c1cccc(NC(=O)Cc2ccc(NC(=O)N3CCCCc4ccccc43)cc2)c1,-19%,-3%
COc1ccccc1/C=N/NC(=O)C(=O)NCc1cccnc1,-8%,-6%
COc1cccc(NC(=O)C2CCN(C(=O)NC3CCCCC3)CC2)c1,-9%,-16%
O=C(NCc1ccncc1)c1ccc2nc([C@@H]3O[C@H](CO)[C@H](O)[C@H](O)[C@H]3O)[nH]c2c1,-2%,-8%
COc1cccc(CNC(=O)c2cc(C)nc3c2c(C)nn3-c2ccc(C)cc2)c1,-8%,-7%
CCc1cccc(C)c1NC(=O)c1ccc2c(c1)CCN2S(=O)(=O)CC,-6%,-15%
CC/C(=N\NC(=O)CCC(=O)NCc1ccccc1)c1ccc(O)cc1,-18%,-13%
CC(=O)N1CCc2cc(S(=O)(=O)NC(Cc3ccccc3)C(=O)NC3CCCCCC3)ccc21 (configuration not stated),-11%,-3%
COCCNC(=S)N(C)[C@H]1C[C@H]2c3cc(N4CCN(C)CC4)ccc3CCN2C(=O)[C@H]1[C@H](C)O,-4%,-11%
CN1CCn2cnc(C(=O)NCC(=O)OC(C)(C)C)c2C1=O,-8%,i
C/C(=C\c1ccccc1)C(=O)NCCc1ccccc1,-7%,-10%
CCOc1ccc(-c2csc(NNC3=NCCCCC3)n2)cc1,-3%,5%
Cc1c(C(C)(C)C)sc(=NC(=O)c2ccccc2O)n1C,-16%,i
CCCN(CCC)CCCOC(=O)c1ccc(Cl)cc1Cl,-12%,x
CCOc1ccc2oc(C(=O)NC(C)(C)CC)c(C)c2c1,-3%,-12%
N#CCCC(C#N)(c1cccnc1)N1CCOCC1 (configuration not stated),-10%,i

# A section from the list above, for reference:
SMILES,Vaccinia Venus,VACV mCherry inh
C/C(=C\c1ccccc1)C(=O)NCCc1ccccc1,-7%,-10%
CCOc1ccc(-c2csc(NNC3=NCCCCC3)n2)cc1,-3%,5%
Cc1c(C(C)(C)C)sc(=NC(=O)c2ccccc2O)n1C,-16%,i
CCCN(CCC)CCCOC(=O)c1ccc(Cl)cc1Cl,-12%,x
CCOc1ccc2oc(C(=O)NC(C)(C)CC)c(C)c2c1,-3%,-12%
N#CCCC(C#N)(c1cccnc1)N1CCOCC1 (configuration not stated),-10%,i

# 4 records drawn at random from the list so far:
SMILES,Vaccinia Venus,VACV mCherry inh
N#Cc1ccc(C(=O)N2CCCCC2c2cc(C(=O)Nc3ccccc3Cl)no2)cc1 (configuration not stated),6%,-1%
CCc1nnc(SCC(=O)Nc2nnc(C)s2)n1CC1CCCO1 (configuration not stated),-14%,-8%
COCCNC(=S)N(C)[C@H]1C[C@H]2c3cc(N4CCN(C)CC4)ccc3CCN2C(=O)[C@H]1[C@H](C)O,-4%,-11%
CCOc1ccc(CN(C)CC(=O)c2c(N)n(Cc3ccccc3)c(=O)n(CC)c2=O)cc1OC,-10%,x

# Entries of single compounds from above. Order of values: Vaccinia Venus | VACV mCherry inh
# Shown for CCc1cccc(C)c1NC(=O)c1ccc2c(c1)CCN2S(=O)(=O)CC = -6% | -15%
# Shown for COc1ccccc1/C=N/NC(=O)C(=O)NCc1cccnc1 = -8% | -6%

# Next entries:
SMILES,Vaccinia Venus,VACV mCherry inh
O=C(COc1nncc2ccccc12)Nc1ccc(F)c(F)c1,-7%,-21%
CC1=C(C(=O)N2CCOCC2)CC(CC(=O)NCCN2CCOCC2)C(=O)N1Cc1ccc(F)cc1 (configuration not stated),-6%,-10%
COc1cc(N)c2ncsc2c1,-12%,-27%
CC1CN(C(=O)C2(C)CC2(Br)Br)CC(C)O1 (configuration not stated),-11%,i
O=C(NCc1ccc2c(c1)OCO2)c1cc(-c2ccncc2)nc2ccccc12,0%,-28%
C/C=C(/C)C(=O)Nc1cccc(C2=NOC3(C2)C[C@H](C(N)=O)N(C(=O)COc2ccc(Cl)cc2)C3)c1 (some centres not stated),-15%,-6%
O=C(COC(=O)c1cc(-c2ccccc2)nc2ccccc12)NCC1CCCO1 (configuration not stated),-12%,i
ClC(Cl)(c1nnnn1-c1ccccc1)c1nnnn1-c1ccccc1,-16%,-22%
Cc1ccc(CNC(=O)C2CCCN(c3nc4ccsc4c(=O)s3)C2)cc1 (configuration not stated),11%,-7%
C=C(C)[C@H]1CN[C@H](C(=O)O)[C@H]1CC(=O)O,-11%,-8%
Cc1nc(N)sc1C(=O)N/N=C/c1c[nH]c2ccccc12,0%,-29%
CN1CCC(N(C)S(=O)(=O)c2ccc(NC(=O)COc3ccc(Br)cc3Cl)cc2)CC1,-20%,i
CC(C)CCNC(=O)C1CC(=O)N(CCc2ccccc2)C1 (configuration not stated),1%,-5%
CCc1ccccc1-n1c2c(cc(-c3nc(-c4ccc(Cl)cc4)cs3)c1=O)C(=O)CC(C)(C)C2,-5%,-2%
CCOC(=O)c1[nH]c(C)c(CCC(=O)NCc2cccc(C)c2)c1C,2%,-18%
Cc1cc(NC(=O)CCC(=O)N(c2ccc(F)cc2)C(C(=O)NC2CCCC2)c2ccccc2)no1 (configuration not stated),-5%,i
CCOC(=O)c1ccccc1NC(=O)c1cc(S(=O)(=O)N2CCOCC2)ccc1F,-15%,x
O=C(CSc1cccc[n+]1[O-])Nc1cc(Cl)ccc1[N+](=O)[O-],-7%,-4%
CC(NC(=O)CCc1nnc(-c2ccc(-c3ccccc3)cc2)o1)c1nccs1 (configuration not stated),-15%,i
CN1CCN(C2=NCCO2)CC1,-11%,i
C(=C\c1ccccc1)/CN1CCN(C(c2ccccc2)c2nnnn2C2CCCCC2)CC1 (configuration not stated),-16%,6%
CCOc1ccccc1C(=O)NCC(=O)NCCc1ccc(S(N)(=O)=O)cc1,-2%,-6%
Cc1cccc(OCC(=O)Nc2ccc3c(c2)nc(CN2CCCCC2)n3C)c1,-31%&-17%,-9%&-21%
COc1ccc(NC(=O)C2(C)Cc3c(-c4cccc(C(N)=O)c4)ccnc3O2)cc1OC (configuration not stated),-25%,u
CSc1ccc(-c2cc3c(c4c2ccn4C)C2CCC3C2)cc1 (configuration not stated),-6%,i
# (cont.)
SMILES,Vaccinia Venus,VACV mCherry inh
CC(=O)N1c2cc3ccccc3cc2N(C(C)=O)c2cc3ccccc3cc21,-1%,-17%
CCOC(=O)C1=C(CS(=O)(=O)c2ccc(C)cc2)NC(=O)NC1c1ccc(O)c(OC)c1 (configuration not stated),9%[7.34 µM],-7%[7.34 µM]
O=S(=O)(c1ccc(Br)s1)N1CCC2(CC1)OCCO2,-8%,-10%
CC(=O)c1c(C)n(-c2ccccc2)c2ccc(OCC(O)CN3CCOCC3)cc12 (configuration not stated),-15%,i
CCOC(=O)C1CCN(C(=O)COc2ccc(S(=O)(=O)N3CCOCC3)cc2C)CC1,-2%,i
COc1ccc(S(=O)(=O)N2CCOCC2)cc1NC(=O)c1ccccc1C,-7%,i
O=C(Nc1ccc(C(=O)N2CCCCC2)cc1)C1CCCC1,-7%,-12%
N#C/C(=C\c1c(F)cccc1Cl)S(=O)(=O)c1ccccn1,-7%,-12%
Cc1cc(C)nc(NN=C(c2ccccc2)c2ccccc2)n1,-10%,-1%
O=C(N/N=C/c1cccs1)[C@H]1C[C@@H]1c1ccccc1,4%,i
O=C(Nc1ccc2c(c1)OCCO2)C1CCCN(S(=O)(=O)c2cccc3nsnc23)C1 (configuration not stated),-8%,-12%
CCCCN1C(=O)c2ccc(C(=O)Nc3ccc(C)c(S(=O)(=O)N(C)C)c3)cc2C1=O,-11%,-14%
CCOC(=O)C1CCCN(C(=O)c2ccccc2)CC1 (configuration not stated),-5%,8%
CCOc1ccc(NC(=O)CN(C)C(=O)CC2CC3CCC2C3)cc1OCC (configuration not stated),-28%,-12%
C[C@H](NC(=O)[C@@H]1CSC2c3ccccc3C(=O)N21)C(=O)NCCc1ccc(F)cc1 (some centres not stated),-20%,-23%
CC(C)(C)c1ccc(C(=O)NC(=S)Nc2ccc(N3CCOCC3)cc2)cc1,-10%,-7%
c1ccc(-c2cc(-c3nc4ccccc4[nH]3)c3ccccc3n2)cc1,u,u
CCN(CC)C(=O)Cn1cnc2sc(C)c(S(=O)(=O)N3CCC(C)CC3)c2c1=O,1%,8%
Cc1ccc(C2C(C#N)=C(N)Oc3cc(C)oc(=O)c32)o1 (configuration not stated),-6%,-13%
O=S(=O)(NCCCN1CCOCC1)c1ccc2ccccc2c1,-15%,-2%
Cc1ccc(NS(=O)(=O)c2ccc(-n3cccn3)cc2)cc1Cl,-9%&-24%,u
C=C(C)C(=O)OCC(C)C,-10%,i
Cc1cccc(C)c1NC(=O)N1CC(C)OC(C)C1 (configuration not stated),-10%,i
O=C(CN1CCC(O)(c2cccc(C(F)(F)F)c2)CC1)NCCc1ccccc1,-14%,-11%
O=C(c1cc(-c2ccc(Cl)cc2Cl)on1)N1CCOCC1,-8%,-14%
C=C(C)C(=O)Nc1nnc(-c2ccccc2C)s1,0%,i
COc1cc(OC)c2c(-c3ccccc3)cc(=O)oc2c1C(CCN1CCCC(C)C1)c1ccc2c(c1)OCO2 (configuration not stated),u,-33%
CC(C)CC(NC(=O)C(CC(C)C)NC(=O)OC(C)(C)C)C(=O)O (configuration not stated),-13%,x
